# Source: PubChem
# RE007 growth inh: qHTS Assay for Inhibitors of the HIV-1 protein Vpr; AID 651644, 2012; S. pombe RE007 Vpr strain, BacTiter-Glo ATP luminescence, 24 h; control for the full effect not named in the record; Potency, µM (highest dose often 92.2 µM), for inactives: top-dose activity change, negative = less growth; 0.21% of 360,000 active; active = well fitted falling curve with a large enough effect; inconclusive = small, poorly fitted or top-dose-only effect; inactive = no such curve, though single readings can be large or run the other way;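 further: nearly all actives have a fitted effect of over 50% in size; the assay follows cell death caused by Vpr and the record does not say whether a fall means rescue or toxicity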
#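 Fission yeast strain RE007, carrying one chromosomally integrated HIV-1 vpr copy, was seeded at OD 0.01 in PMG+AL medium with 23 nL pinned compound. After 24 h at 30 °C and 99% humidity, viability was read by BacTiter-Glo luminescence.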
# 2A StopGo: High Throughput Screening for Foot and Mouth Disease Virus Antivirals | Potency, µM (doses to about 57.9 µM), for the others: at the highest dose signal change, negative = less light | AID 1159524, 2015 | human cells with a luciferase reporter of 2A StopGo recoding; control for the full effect not named in the record | 1.2% of 410,000 active; active = well fitted falling curve with a large enough effect; inconclusive = small, poorly fitted or top-dose-only effect; inactive = no such curve, though single readings can be large or run the other way; tested in HEK293T cells; further: nearly all actives have a fitted effect of over 45% in size; luciferase light after 4 h
# * marks the source's active call; other numbers are inactive results; ? = inconclusive; [ ] = dose if it differs, or a comment. On the % scale 0 is the no-effect control and ±100 the full control effect; potency means the concentration at half of the fitted maximal effect.
SMILES,RE007 growth inh,2A StopGo
CNC[C@@H]1Oc2cc(Br)ccc2S(=O)(=O)N([C@@H](C)CO)C[C@H]1C,0%,-8%
CCN1C(=O)[C@H]2[C@@H](c3ccc(OC)cc3)N[C@]3(CCCN(CCC(C)C)C3=O)[C@H]2C1=O,4%,-16%
Cc1nc2ccc(Cl)cc2n1C,-15%,0%
CN1CCN(c2ncnc3c2ncn3[C@H]2CN(Cc3ccc4c(c3)OCO4)C[C@@H](CO)O2)CC1,-12%,-17%
COc1cccc(-c2nc(-c3cccc(C)c3)nc3cc(Cl)ccc23)c1,-7%,-12%
O=C(NC(c1ccc(-c2ccccc2)cc1)c1cnccn1)C1CCN(Cc2ccc(Oc3ccccc3)cc2)CC1 (stereo not drawn),23%,-25%
COc1ccc(-c2ccc3c(c2)C2CC3CCN2Cc2ccc(OC(F)(F)F)cc2)cc1 (stereo not drawn),-22%,0%
CN1CCc2cc3c(cc2[C@H]1[C@@H]1OC(=O)c2c1ccc1c2OCO1)OCO3,-11%,0%
O=c1[nH]nnc2c1ncn2C1OC(CO)C(O)C1O (stereo not drawn),4%,-18%
CCCN1CCCC[C@H]1C(=O)Nc1c(C)cccc1C,-6%[18.4 µM],-21%
FC(F)(F)c1ccccc1-c1ccc2nncn2c1,-5%,-25%
CCCS(=O)(=O)NC(=O)C1(C)CCN(C(=O)c2ccc(C(F)(F)F)cc2)C1 (stereo not drawn),11%,2%
CCOC(=O)[C@]12Cc3cc(Cl)ccc3[C@H]1N(C1CCCCC1)C(=O)c1ccccc12,?,4.5µM*
COc1cccc(C(C)(O)c2nc(-c3ccc4ccccc4c3)cs2)c1 (stereo not drawn),4%[18.4 µM],0%
COc1ccc(NC(=O)[C@@H]2CC=C[C@@H]3CCN(Cc4ccc(Cl)c(Cl)c4)C(=O)[C@@H]32)cc1,15%,-17%
O=C(C(=O)N1CCN(c2ccccc2F)CC1)c1cn(CC(=O)N2CCCC2)c2ccccc12,2%,24%
COC(=O)C[C@@H]1C[C@@H]2c3cc(NS(=O)(=O)c4ccc(F)cc4)ccc3O[C@@H]2[C@@H](CO)O1,4%,-19%
C[C@H]1CN(S(=O)C(C)(C)C)[C@H](CCO)/C1=C\c1ccccc1 (stereo partly drawn),-1%,-7%
CCCC[C@@H]1CN=C(N)N1CCc1cccc(F)c1,-5%,-19%
NC(Cc1ccc(F)cc1)c1csc(Nc2ncccn2)n1 (stereo not drawn),2%,-19%
O=C1CC(=O)N(C2CCCCC2)C(=O)N1c1ccccc1S(=O)(=O)Oc1ccccc1,8%,-8%
O=NN(Cc1cccnc1)Cc1cccnc1,5%,-3%
O=C1NC(=O)C(=CC=Cc2ccccc2)S1,-8%,52%[activator]
C=CCN(CC=C)Cc1cc(=O)oc2ccccc12,-14%,-17%
N#Cc1cccc(OC(=O)C2CCN(C(=O)c3ccc(F)cc3)CC2)c1,-5%,-16%
SMILES,RE007 growth inh,2A StopGo
O=C(CSCC(=O)c1ccc([N+](=O)[O-])cc1)c1ccc([N+](=O)[O-])cc1,-21%,-16%
CCCCNC(=O)C1(C)CCCCN1C(=O)c1cccs1 (stereo not drawn),0%,-15%
CCN(CC)CCN1CNC(=S)NC1,-2%,-18%
COc1cnn(-c2cccc(Cl)c2)c(=O)c1Cl,7%,-4%
CCN1C(=O)[C@H]2[C@@H](c3ccc(C)cc3)N[C@]3(CCCN(Cc4cccn4C)C3=O)[C@H]2C1=O,-14%,-14%
Cc1cc(C)n2c(Nc3c(C)cccc3C)c(CCc3ccccc3)nc2n1,-14%,?
Cc1ccccc1S(=O)(=O)N1C[C@H]2[C@H]3C(=O)N(C4CCCCC4)C(=O)[C@H]3CC(=O)[C@H]2[C@@H]1c1ccc(Cl)cc1,10%,-25%
CCOC(=O)[C@]12Cc3cc(C)ccc3[C@H]1N(C(C)C)C(=O)c1ccccc12,-29%,10µM*
O=S(=O)(NCc1ccncc1)c1ccc(F)c(F)c1,-10%,?
CC1(C(=O)NCCc2c[nH]c3ccccc23)CCN1Cc1ccccc1OC(F)F (stereo not drawn),-4%,-26%
C[C@H](CO)N1C[C@H](C)[C@@H](CN(C)C(=O)NC2CCCC2)Oc2cc(Br)ccc2S1(=O)=O,-5%,0%
O=[N+]([O-])c1ccc(N(CCO)CCO)c2c1no[n+]2[O-],-18%,?
COc1ccccc1CCn1cnc(Cc2cccc(F)c2)c1C(C)C,-17%,22µM*
COc1ccc2c(c1)C(=O)C1(CC2)OC1c1cccnc1 (stereo not drawn),-1%,22%
O=C1c2c(-c3ccc(Br)cc3)noc2CCN1Cc1cn(C2CCCC2)nn1,3%,?
C[C@@H]1CN([C@H](C)CO)C(=O)c2cc(Br)cnc2O[C@@H]1CN(C)C(=O)c1cccc(F)c1,-5%,0%
Cc1cccc(C)c1NC(=O)C1(C)CSCC(=O)N1CCCN1CCOCC1 (stereo not drawn),-10%,-11%
COCC(Cc1ccccc1)NC(=O)Cn1cc(C)c(=O)[nH]c1=O (stereo not drawn),2%,-11%
CC1(C(=O)O)CCCN1C(=O)c1cccc(OC(F)(F)F)c1 (stereo not drawn),-5%,-7%
O=C(OCc1ccccc1)N1CCCCC1c1c(Cl)cccc1Br (stereo not drawn),-2%,?
CC(C)c1ccc(NC(=O)Nc2nnc([C@H]3C[C@H](O)[C@@H](CO)O3)s2)cc1,0%,11%
CCOC(=O)Cn1cc(Cn2c3ccccc3c(=O)n2C(C)C)nn1,7%,-11%
COc1cccc(-c2cnc3c(NC=O)cc(-c4cc(OC)c(OC)c(OC)c4)cn23)c1,22%,-28%
COc1ccccc1N1CCN(S(=O)(=O)CCNC(=O)c2cccs2)CC1,-13%,-5%
COc1ccccc1C(O)c1ncc(-c2ccccc2C)[nH]1 (stereo not drawn),-28%,3%
SMILES,RE007 growth inh,2A StopGo
C[C@@H]1CN([C@H](C)CO)C(=O)CCCn2cc(nn2)CO[C@H]1CN(C)S(=O)(=O)c1ccccc1C#N,0%,-2%
COCCNc1ncnc2c1ncn2[C@H]1CN(CCOC)C[C@@H](CO)O1,2%,-24%
N#CCOc1ccccc1CNC[C@H]1O[C@@H](n2cnc3c(=O)[nH]c(N)nc32)[C@H](O)[C@@H]1O,5%,-1%
CC(C)Oc1cc(F)ccc1-c1cc(C(=O)NCc2ccccc2)[nH]n1,-13%,-2%
CCCS(=O)(=O)NC(=O)C1(C)CCN(C(=O)c2nc(C)oc2C)C1 (stereo not drawn),1%,-2%
OC[C@@H]1CN(Cc2cccs2)C[C@H](n2cnc3c(NC4CCC4)ncnc32)O1,2%,-24%
CSc1ccccc1C(=O)C1CCCN(C(=O)c2cccc(Cn3cccn3)c2)C1 (stereo not drawn),-20%,0%
CNc1cc(-c2cc(OC)ccc2OC)ncn1,?,-7%
COc1ccc(NC(=O)C2Cc3c(-c4cccc(C(C)=O)c4)ccnc3O2)cc1OC (stereo not drawn),-11%[18.4 µM],8.9µM*
CCC(=O)OC(Cc1ccccc1)(c1ccccc1)C(C)CN(C)C (stereo not drawn),-17%,-19%
O=C(O)c1cocc1C(=O)O,-6%,-2%
CCCCCC(=O)N1C[C@@H](n2cc(COC(=O)c3ccccc3)nn2)[C@H](O)C[C@@H]1c1ccc(OC)cc1,-2%,-21%
CCCNC(=O)C1(C)CCN1C(=O)c1cc(C)n(C)n1 (stereo not drawn),3%[18.4 µM],-10%
COc1cccc(C(c2nnnn2C(C)(C)C)N2CCC3(CC2)C(=O)NCN3c2ccccc2)c1OC (stereo not drawn),-19%,11%
Cc1ccc(C)c(S(=O)(=O)N2CCCC2CNC(=O)C(=O)Nc2ccccc2)c1 (stereo not drawn),2%,5%
COc1ccc(-c2ccc(CN3C(C(C)C)C(=O)N(Cc4cn(CCC5OCCO5)nn4)CCS3(=O)=O)cc2)cc1OC (stereo not drawn),6%,-1%
O=C(Nc1ccc(F)cc1)C(CCc1ccccc1)N1CCN(C(=O)c2ccco2)CC1 (stereo not drawn),14%,11%
Cc1cccc(C)c1NC(=O)C(c1ccccc1OC(F)(F)F)N1CCN(c2ccc(F)cc2)CC1 (stereo not drawn),2%,-16%
CC(=O)Nc1ccc2nc(NC(=O)CS(=O)(=O)c3ccc(F)cc3)sc2c1,-1%,-24%
CC1(c2ccc(Cl)cc2Cl)NC(=O)N(CC(=O)NCCC2=CCCCC2)C1=O (stereo not drawn),7%,-28%
COc1ccccc1-c1cnc(C(O)c2cccc(F)c2)[nH]1 (stereo not drawn),-16%[18.4 µM],17%
CCN(CC)CCNc1ccc(CO)c2oc3cc(Cl)ccc3c(=O)c12,-16%,-17%
COc1cc(C(=O)N2CCCCC2c2cc(C(=O)NC(C)C)no2)cc(OC)c1C (stereo not drawn),9%,-24%
COc1ccc(S(=O)(=O)N2CCC(C(=O)NCCC(=O)NCc3ccccn3)CC2)cc1,-8%,-16%
O=C(C(=O)N1CCN(c2ccccc2F)CC1)c1ccccc1,-5%,-13%

# Single records, from the list above.
# CC1(c2ccc(Cl)cc2Cl)NC(=O)N(CC(=O)NCCC2=CCCCC2)C1=O (stereo not drawn) in the list: RE007 growth inh: 7%; 2A StopGo: -28%
# COc1ccc(NC(=O)C2Cc3c(-c4cccc(C(C)=O)c4)ccnc3O2)cc1OC (stereo not drawn) in the list: RE007 growth inh: -11%[18.4 µM]; 2A StopGo: 8.9µM*

# For convenience, 7 of the compounds above.
SMILES,RE007 growth inh,2A StopGo
N#CCOc1ccccc1CNC[C@H]1O[C@@H](n2cnc3c(=O)[nH]c(N)nc32)[C@H](O)[C@@H]1O,5%,-1%
CC(C)Oc1cc(F)ccc1-c1cc(C(=O)NCc2ccccc2)[nH]n1,-13%,-2%
CCCS(=O)(=O)NC(=O)C1(C)CCN(C(=O)c2nc(C)oc2C)C1 (stereo not drawn),1%,-2%
OC[C@@H]1CN(Cc2cccs2)C[C@H](n2cnc3c(NC4CCC4)ncnc32)O1,2%,-24%
CSc1ccccc1C(=O)C1CCCN(C(=O)c2cccc(Cn3cccn3)c2)C1 (stereo not drawn),-20%,0%
CNc1cc(-c2cc(OC)ccc2OC)ncn1,?,-7%
COc1ccc(NC(=O)C2Cc3c(-c4cccc(C(C)=O)c4)ccnc3O2)cc1OC (stereo not drawn),-11%[18.4 µM],8.9µM*

# Further compounds
SMILES,RE007 growth inh,2A StopGo
C[C@H]1CN([C@@H](C)CO)C(=O)CCCn2nncc2CO[C@H]1CN(C)C(=O)Cc1ccccc1,-18%,-2%
O=[N+]([O-])c1cnccc1-n1nnc2ccccc21,-13%,?
CCCCCC(=O)N1C[C@@H](O)[C@H](n2cc(-c3ccc(F)cc3)nn2)C[C@@H]1c1ccc(OC)cc1,12%,11%
CC(C)(C)c1ccc(S(=O)(=O)Nc2ccc(C(O)(C(F)(F)F)C(F)(F)F)cc2)cc1,9%,-17%
COc1ccc(CCNC(=O)CN(c2ccccc2)S(=O)(=O)c2ccccc2)cc1,-9%,-18%
CC(C)(C)c1ccc(CC(=O)N2CCC2(C)C(=O)NS(=O)(=O)c2ccc(Cl)cc2)cc1 (stereo not drawn),14%,-14%
COc1ccc(C(=O)Nc2cccc(NC(=O)c3ccc(OC)cc3OC)n2)c(OC)c1,5%,20%
CCCCn1c(N)c(N(CC(C)C)C(=O)c2cc(-c3ccc(OC)cc3)nc3ccccc23)c(=O)[nH]c1=O,2%,71%[activator]
O=C(Nc1ccc(F)c(Cl)c1)C1Cc2c(-c3cccc(F)c3)ccnc2O1 (stereo not drawn),-7%[18.4 µM],?
CCN(CC)c1ccc2cc(C(=O)c3cccs3)c(=O)oc2c1,-10%,31%[activator]
O=C(Nc1cccc2cccnc12)c1ccccc1Br,-26%,7%
O=C(C[C@H]1CC[C@@H]2[C@H](COC[C@H](O)CN2Cc2cccc(F)c2)O1)NCc1cccc(F)c1,-6%,-12%
Cc1ccc([C@@H]2C[C@H]3[C@@H](CN2S(=O)(=O)c2ccc(Cl)cc2)C(=O)C[C@@H](c2cccc(Cl)c2)N3S(=O)(=O)c2ccc(C)cc2)cc1,19%,0%
O=C(c1cc(COc2c(F)cccc2F)on1)N1CC[C@@H]2CCCC[C@H]2C1,-1%,47%[activator]
O=C(Nc1cccc(OC(F)(F)F)c1)c1ccc(-c2cccnc2)c2ccoc12,8%,0%
Nc1nc2ccc(Br)cc2s1,2%,0%
Cc1ccc(NC(=S)NNC(=S)NNc2ccccc2)cc1C,4%,0%
Nc1nnc2cc(Br)ccc2n1,-6%,0%
CCCCn1nnnc1C(c1ccccc1)N1CCN(C(=O)c2ccco2)CC1 (stereo not drawn),14%,-12%
Nc1ccc(CCCC(=O)NCc2cccnc2)cc1,-2%,-15%
CCc1nc2c(OCc3ccccc3)cccn2c1N(C)C(=O)c1ccc(OC)cc1,0%,-15%
CCc1nc2c(OCc3ccc(C(=O)OC)cc3)cccn2c1N(C)C(=O)C(C)C,-15%,1%
COc1ccc(CN2C[C@@H](CO)O[C@@H](n3cnc4c(NCc5cc(OC)c(OC)c(OC)c5)ncnc43)C2)cc1,1%,-1%
CC(O)(c1ccc(F)c(F)c1)c1nc(-c2cc(F)cc(F)c2)cs1 (stereo not drawn),?,0%
COc1ccc(S(=O)(=O)Nc2ccc3c(c2)[C@H]2C[C@H](CC(=O)NCC4CC4)O[C@@H](CO)[C@H]2O3)cc1,0%,-22%
OC(c1ccc(F)cc1)c1ncc(-c2cccc3ccccc23)[nH]1 (stereo not drawn),-15%,43%[activator]

# A portion of the library, so the mix of outcomes need not match the whole.
